KCNQ2 block: KCNQ2 potassium channel inhibitors, primary screen, cell-based, CHO-K1, FluxOR thallium flux, B-score (AID 2156). O88943. 20 min; active compounds read low; only compounds with negative scores are shown here; some inactives read as strong as hits. B-score at 10 µM. 310,000 tested, 1.1% active;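 active = fluorescence ratio B-score at most minus 3 library SDs, with starting brightness B-score within 2 library SDs, cut at about -5.5 in these data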
Target sequence (O88943 whole entry, looked up): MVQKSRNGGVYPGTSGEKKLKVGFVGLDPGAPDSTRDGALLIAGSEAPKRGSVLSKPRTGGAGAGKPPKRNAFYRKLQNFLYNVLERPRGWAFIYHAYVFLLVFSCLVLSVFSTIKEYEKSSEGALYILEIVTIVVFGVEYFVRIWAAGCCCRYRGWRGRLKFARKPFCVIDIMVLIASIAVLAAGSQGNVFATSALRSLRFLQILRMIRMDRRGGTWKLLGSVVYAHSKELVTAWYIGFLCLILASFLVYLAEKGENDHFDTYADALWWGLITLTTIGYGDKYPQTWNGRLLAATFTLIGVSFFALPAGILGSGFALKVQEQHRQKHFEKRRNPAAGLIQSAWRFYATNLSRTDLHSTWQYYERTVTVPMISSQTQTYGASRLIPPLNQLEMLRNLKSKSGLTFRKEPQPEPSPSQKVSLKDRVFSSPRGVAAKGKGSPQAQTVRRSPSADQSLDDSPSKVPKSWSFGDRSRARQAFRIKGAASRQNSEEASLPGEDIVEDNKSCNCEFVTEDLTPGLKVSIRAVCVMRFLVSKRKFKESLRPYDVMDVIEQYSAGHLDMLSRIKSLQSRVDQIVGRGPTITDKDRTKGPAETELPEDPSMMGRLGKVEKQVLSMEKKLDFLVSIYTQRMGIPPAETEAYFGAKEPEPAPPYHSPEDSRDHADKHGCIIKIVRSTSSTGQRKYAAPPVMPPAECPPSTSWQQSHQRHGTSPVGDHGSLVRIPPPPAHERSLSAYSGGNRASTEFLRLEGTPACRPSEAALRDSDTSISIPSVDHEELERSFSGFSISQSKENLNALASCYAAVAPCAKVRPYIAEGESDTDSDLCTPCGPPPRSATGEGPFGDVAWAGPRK
KCNQ2 block baseline: recorded beside KCNQ2 block, whose call it bears; B-score; measured here: initial fluorescence intensity artifact check;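 brightness before thallium and not channel activity; 0 = typical well and far values either way flag optical interference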
Active calls of the source: *; i = inactive.

smiles,KCNQ2 block,KCNQ2 block baseline
COc1ccc(Cl)cc1CN1CCN(c2nc(C)cc(C)c2C#N)CC1,i,2.2
CC(C)c1nnc(NC(=O)CCC(=O)Nc2ccccc2)s1,i,-1.3
C=CCn1c(SCC(=O)Nc2ccc(F)cc2)nc2ccccc2c1=O,i,-0.71
Cc1ccc(NC(=O)C2CCN(C(=O)c3cccs3)CC2)cc1,i,-0.27
S=C(NCCN1CCOCC1)Nc1ccc(Nc2ccccc2)cc1,i,1.8
O=c1c2c(-c3ccccc3)csc2ncn1/N=C/c1c2ccccc2cc2ccccc12,i,-1.4
CC(c1ccccc1)N1C(=O)/C(=C/c2ccncc2)SC1=S (configuration not stated),i,1.6
COc1ccc(CCNC(=S)NC(=O)c2cccc(Cl)c2)cc1OC,i,-1
O=C(COc1cccc2cccnc12)Nc1nccs1,i,3.1
O=C(COC(=O)Cc1ccc(Br)cc1)NCC1CCCCC1,i,-0.97
COc1cccc(-c2cc(C(=O)NN3CCOCC3)c3ccccc3n2)c1,i,2.7
COc1ccc2nc(C3CCCCC3)nc(C3CCCCC3)c2c1,i,0.85
Cc1ccc(C)n1NC(=O)c1ccccc1,i,1.8
CCC1(CC)NC(=O)N(CC(=O)OCC(=O)Nc2ncc(Cl)cc2Cl)C1=O,i,0.6
Cc1cc(C)c(C(=O)c2ccc(C(=O)N(C(C)C)C(C)C)cc2)c(C)c1,i,0.1
CCN1C(=O)C2C(c3cccc(F)c3)NC(C)(C(=O)OC)C2C1=O (configuration not stated),i,-0.65
O=C(COC(=O)c1cccc(S(=O)(=O)N2CCOCC2)c1)c1ccccc1,i,-0.25
CCOC(=O)C1CCN(C(=O)C2CCN(c3nnc(-n4cccc4)s3)CC2)CC1,i,-0.21
Cn1c(/C=N/NC(=O)c2ccccc2Br)nc2ccccc21,i,0.41
N=C1C(c2ccccc2)=C(O)CN1c1cccc(S(=O)(=O)N2CCCCC2)c1,i,-1.3

More compounds follow.
smiles,KCNQ2 block,KCNQ2 block baseline
O=C1C2C3C=CC(C4CC34)C2C(=O)N1/N=C/c1ccc([N+](=O)[O-])o1 (configuration not stated),i,0.01
CN1CCN(c2ccc(S(=O)(=O)N3CCCCC3)cc2NC(=O)c2ccc3ccccc3c2)CC1,i,0.8
CCOc1cc(CNn2c(C)nnc2SCC(=O)NC(C)(C)C)ccc1OCC(=O)NC(C)(C)C,i,-0.59
COc1cccc(NC(=O)CCCN2C(=O)C3CC=CCC3C2=O)c1 (configuration not stated),i,-1.5
COc1ccccc1N1CCN(/N=C/c2cccc(Cl)c2)CC1,-7*,-1.9*
Nc1ccc(N2CCOCC2)cc1C(F)(F)F,i,0.23
COc1cccc(/C=N\NC(=O)C2=NNC(=O)C2C)c1O (configuration not stated),i,0.01
CC(C)(C)C(=O)Nc1cccc(S(=O)(=O)NC2=NCCC2)c1,i,0.85
c1ccc(C[n+]2cccc(-c3ccccc3)c2)cc1,i,0.91
CC1=CC(=O)C(C(C)C)=C/C1=N/OS(=O)(=O)c1ccccc1,i,-1.4
CN(c1ccc(C(=O)NCc2ccccc2)cc1)S(C)(=O)=O,i,1.6
COc1ccc(CCNc2ccc(S(N)(=O)=O)cn2)cc1,i,2.9
O=S(=O)(c1ccc(Cl)s1)N1CCN(c2ncccn2)CC1,i,1.5
COc1ccc(C(=O)NCc2nnc(SCC(=O)c3ccccc3)o2)cc1,i,-0.05
COc1ccc(Cc2nnc(SCC(=O)N3CCCC3)o2)cc1,i,-2.9
Cc1ccnc(N2C(=O)C3C4CC(C(Br)C4Br)C3C2=O)c1 (configuration not stated),i,1
O=C(Nc1cccc2ccccc12)NC1CCCCC1,i,0.05
COC(=O)c1cc(Cl)c(NC(=O)Cc2ccccc2)cc1OC,i,-1.1
Cc1nn(-c2ccccc2)c2sc(C(=O)N3CCc4ccccc4C3)cc12,i,2.8
CCN(CC)c1ncnc2c1ncn2Cc1c(Cl)cccc1Cl,i,-1.2

(continued)
smiles,KCNQ2 block,KCNQ2 block baseline
CC1(C)CC2CC(C)(CN2c2ncnc3ccccc23)C1 (configuration not stated),i,-0.1
CCOC(=O)C1C(=O)NC(N2CCN(c3ccccc3)CC2)=NC1c1ccccc1 (configuration not stated),i,-0.46
CN(Cc1ccccc1)C(=O)c1ccccc1NC(=O)C1=CSCCO1,i,-0.23
Cc1c(O)ccc(/C(Cc2ccc3ccccc3n2)=N\O)c1O,i,-0.86
COc1cccc(C(C(=O)NC2CCCCC2)N(C(=O)CNC(=O)c2ccco2)c2cccnc2)c1 (configuration not stated),i,-1.2
C/C(=N\NC(=O)c1ccc2c(c1)OCO2)c1ccc(NS(C)(=O)=O)cc1,i,0.02
CCCCOC(=O)CSC(=S)N(C)Cc1cccs1,i,-3.4
CCn1nnc(NC(=O)c2ccc(-c3ccc(Cl)cc3)o2)n1,i,0.39
CC(C)Oc1ccc(/C=N/NC(=O)C(CSCc2ccccc2)NC(=O)c2ccc([N+](=O)[O-])cc2)cc1 (configuration not stated),i,-0.07
O=C(CC1Nc2ccccc2NC1=O)Nc1ccc2c(c1)OCO2 (configuration not stated),i,-1.6
O=C(CSc1nc(Cc2ccccc2)nc2ccccc12)Nc1ccc2c(c1)OCCO2,i,-0.45
NC(=O)c1c(NC(=O)Cc2ccccc2)sc2c1CCN(Cc1ccccc1)C2,i,-0.33
O=C(OCCN=C1NS(=O)(=O)c2ccccc21)C1CC(=O)N(c2ccc(Cl)cc2)C1 (configuration not stated),i,0.96
Cc1oc(-c2ccccc2F)nc1CS(=O)(=O)CC(=O)NCCCN1CCc2ccccc2C1,i,-0.24
COc1ccccc1-c1cc(C(F)(F)F)nc(N2CCCCC2)n1,-9.7*,1.6*
CN(C)CCCN(C(=O)c1ccc(S(=O)(=O)N2CCCCCC2)cc1)c1nc2c(F)cc(F)cc2s1,i,0.24
O=C(CNS(=O)(=O)c1ccc(Br)s1)N1CCC(N2CCCCC2)CC1,i,1.2
CCOc1ccc(S(=O)(=O)N2CCN=C2c2ccccc2)c(C)c1C,i,2.2
O=S(=O)(c1ccccc1)N1CCN(C(=S)NCCc2ccccc2)CC1,i,0.83
CC1=C(C(=O)OC(C)C)[C@@H](c2ccc(C)o2)NC(=O)N1,i,-0.91

Remaining list, next part.
smiles,KCNQ2 block,KCNQ2 block baseline
CCCCNc1nc(CC)c2c(c1C#N)CCCC2,i,-0.3
COc1ccc(/C=C2/N=C3CCCCCN3C2=O)cc1,i,-0.08
COc1ccc(/C=C/C(=O)c2ccc(O)cc2)cc1COc1ccc(F)cc1,i,-0.65
CCCNC(=O)c1ccc(N2CCC3(CC2)CC(c2cccc(Br)c2)=NO3)c(NC(=O)c2cccc(C)c2)c1,i,0.45
COc1cc(C)ccc1OCCCOc1ccccc1Br,i,0.76
O=C(Nc1ccc(F)cc1)C1CCN(C(=O)c2ccc([N+](=O)[O-])cc2)CC1,i,1.2
COc1ccc(NS(=O)(=O)c2ccc3c(c2)NC(=O)C(C)S3)cc1 (configuration not stated),i,0.29
O=C(c1cnn2c(C(F)F)cc(-c3ccccc3)nc12)N1CCc2ccccc21,i,-0.22
CCC(C)(NC(=O)c1ccc(=O)[nH]c1)C(=O)NC1CCCC1 (configuration not stated),i,0.47
COc1cccc(C(=O)N2CCN(Cc3ccccn3)CC2)c1OC,i,-0.21
COc1ccc(C(=O)NCc2nnc(SCCOc3ccccc3)n2C)cc1,i,1.7
O=C(Nc1ccc(NC(=O)c2cccs2)cc1)c1ccccc1,i,-1
COc1ccc(CCNC(=O)CSC2=Nc3ccccc3C3=NC(C(C)C)C(=O)N23)cc1OC (configuration not stated),i,1.6
CCOc1cc(-c2noc(CCC(=O)NC3CCCCC3)n2)ccc1OC,i,-1.7
CC(=O)Nc1ccc(S(=O)(=O)NCCC(=O)OCCN2C(=O)c3ccccc3C2=O)cc1,i,0.6
CCOc1cc(CNCCc2ccc(S(N)(=O)=O)cc2)ccc1OCc1ccccc1,i,-0.58
CC(=O)N1N=C(c2cccc(NS(C)(=O)=O)c2)CC1c1ccc2c(c1)OCO2 (configuration not stated),i,1.3
Cc1ccc(C)n1-c1nn(S(=O)(=O)c2cccc(C(F)(F)F)c2)c2cccc(F)c12,i,0.97
CCOC(=O)N1CCN(C(=O)CN(Cc2ccccc2)S(=O)(=O)c2ccc(OC)c(Cl)c2)CC1,i,0.07
CN=C(Nc1cc(C)nn1CCC#N)c1ccc(F)cc1,i,1.3

The list goes on.
smiles,KCNQ2 block,KCNQ2 block baseline
CC(=O)N1CCN(c2ccc(NC(=O)c3ccccc3C)cc2)CC1,i,-0.24
Fc1ccccc1-n1cn[nH]c1=S,i,-0.46
CCCn1c(=O)c(C(=O)NCc2ccccc2)c(O)c2ccccc21,i,-2
N#Cc1c(SCc2cccc(Cl)c2)sc(C(=O)c2ccccc2)c1N,i,0.35
CC(C)CNS(=O)(=O)c1ccc(OCC(=O)NCc2ccco2)cc1,i,0.65
CCOC(=O)/C(C#N)=C1/C=CNC(=O)N1,i,-0.02
O=C(O)CC/C(=N\Nc1ccc([N+](=O)[O-])cc1S(=O)(=O)N1CCOCC1)c1cccs1,i,-0.73
CCn1cc(S(=O)(=O)c2ccccc2)c(=O)c2cc(F)c(N3CCN(C)CC3)cc21,i,0.53
O=C(Nc1cccnc1)c1cc(Br)c(Br)s1,i,-0.14
CCCCOC(=O)c1ccc(N=Nc2c(C)c(C#N)c(O)[nH]c2=O)cc1,i,-0.86
Cc1occc1-c1nnc(SCC(=O)Nc2ccccc2)n1C(C)c1ccccc1 (configuration not stated),i,-0.2
Cc1[nH]c(C)c(S(=O)(=O)NCC(C)c2ccccc2)c1C(=O)N1CCCCC1 (configuration not stated),i,0.65
CCOC(=O)C1CCN(c2c(NCc3ccc(C(=O)NCCC(C)C)cc3)c(=O)c2=O)CC1,i,-0.4
Cc1ccc(C(=O)N2c3ccccc3CC2C)o1 (configuration not stated),i,-0.09
COc1ccc(CCNC(=O)c2ccccc2-c2ccccc2C(=O)O)cc1OC,i,1.2
CCOC(=O)Nc1ccc2c(c1)N(C(=O)CN1CCN(C)CC1)c1ccccc1S2,i,0.32
Cc1nnc(SCC(=O)N2N=C(c3ccc(Cl)cc3)CC2c2ccco2)[nH]c1=O (configuration not stated),i,2.7
Cc1cc(=O)[nH]c(SCC(=O)NCc2ccc3c(c2)OCO3)n1,i,-0.17
N#CC1=C(N)Oc2c(ccc3cccnc23)C1c1ccccc1 (configuration not stated),i,-0.02
COc1ccccc1C(=O)Nc1ccnn1C1CCN(Cc2cn(C)c3ccccc23)CC1,i,0.05

Looked up by structure from the entries so far, six records:
smiles,KCNQ2 block,KCNQ2 block baseline
N#Cc1c(SCc2cccc(Cl)c2)sc(C(=O)c2ccccc2)c1N,i,0.35
O=C(O)CC/C(=N\Nc1ccc([N+](=O)[O-])cc1S(=O)(=O)N1CCOCC1)c1cccs1,i,-0.73
Cc1ccc(C(=O)N2c3ccccc3CC2C)o1 (configuration not stated),i,-0.09
CCOC(=O)Nc1ccc2c(c1)N(C(=O)CN1CCN(C)CC1)c1ccccc1S2,i,0.32
O=C(Nc1cccnc1)c1cc(Br)c(Br)s1,i,-0.14
Cc1cc(=O)[nH]c(SCC(=O)NCc2ccc3c(c2)OCO3)n1,i,-0.17

The list goes on.
smiles,KCNQ2 block,KCNQ2 block baseline
CCOC(=O)C1(Cc2cccc(OC)c2)CCCN(C(=O)c2cc(CC(C)C)[nH]n2)C1 (configuration not stated),i,1.7
O=C(CCn1c(=O)oc2ccccc21)Nc1ccccc1,i,1.6
CCOC(=O)/C(C#N)=C/c1c(N2CCCCCC2)nc2ccccn2c1=O,i,-0.3
COC(=O)c1ccc(-n2nnnc2SCc2nn[nH]n2)cc1,i,-0.35
COc1cccc(CN2CC(C(=O)NCCC3=CCCCC3)CCC2=O)c1 (configuration not stated),i,-0.02
COc1ccc(Nc2c(-c3ccco3)nc3ccc(C)cn23)cc1,i,-0.17
CCOC(=O)c1[nH]c(C)c(C(=O)N2CCOCC2)c1C,i,-2.2
Cc1ccc2nc(-c3ccc(NC(=O)CCS(=O)(=O)c4ccccc4)cc3)sc2c1,i,-0.47
O=C1CC2(CCN(C(=O)c3ccc([N+](=O)[O-])cc3)CC2)Oc2ccccc21,i,0.16
COc1cccc(CNC(=O)C2CCCN(S(=O)(=O)c3ccc4c(c3)C(C)(C)C(=O)N4C)C2)c1 (configuration not stated),i,-0.64
COc1ccc(CCNC(=O)C2CCN(C(=O)c3ccc(C(C)(C)C)cc3)CC2)cc1,i,0.78
Cc1ccc(S(=O)(=O)N(CC(=O)O)Cc2ccccc2F)cc1,i,0.17
CCNc1ccc(N=Nc2c(C)n(C)n(-c3ccccc3)c2=O)cc1,i,0.41
O=C(Nc1nc2ccccc2s1)C1CCN(S(=O)(=O)c2cc([N+](=O)[O-])ccc2Cl)CC1,i,1.9
COC(=O)/C(=C(/F)SCC(C)=O)C(F)(F)F,i,-0.26
CCCCCC(=O)N=Nc1c(O)[nH]c2ccc([N+](=O)[O-])cc12,i,-0.82
c1ccc(COC2CCCN(Cc3nc(Cc4ccccc4)no3)C2)cc1 (configuration not stated),i,-0.04
COC(=O)c1cc(C(=O)c2cc(Br)ccc2O)coc1=N,i,0.56

Complete entries from above.
Shown for `Cc1ccc(C)n1-c1nn(S(=O)(=O)c2cccc(C(F)(F)F)c2)c2cccc(F)c12` = KCNQ2 block: i; KCNQ2 block baseline: 0.97
Shown for `CCOc1cc(-c2noc(CCC(=O)NC3CCCCC3)n2)ccc1OC` = KCNQ2 block: i; KCNQ2 block baseline: -1.7

Source: PubChem (Johns Hopkins Ion Channel Center)

These rows are one share of the data (hit frequency here may not be typical).
